PKD1 inh: inhibitors of human PKD1 kinase, biochemical, fluorescence polarization; PKD1 kinase fluorescence polarization assay; 200,000 compounds, 0.056% hits; inhibition, %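 (about 10 µM by stock and volumes)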; AID 797, 2007; Serine/threonine-protein kinase D1 (Homo sapiens), Q15139;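 active = inhibition of 50% or more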;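 note: controls were vehicle for no effect and a reference inhibitor for full effect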
Insulin prom inh: inhibitors of insulin promoter-driven GFP, primary screen, imaging, TRM-6 cells (human fetal islet line), eGFP reporter, cell count; 130,000 compounds, 0.9% hits; inhibition, % at 2 µM; AID 1273, 2008; reporter expression induced with tamoxifen;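 active = inhibition above the mean plus 3 SD, with well images judged a real hit on visual review, cut at about 60% in these data, passing the limit was not always enough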
GALR2 agonist: GALR2 receptor agonists, primary screen, cell-based; Galanin receptor type 2 (Homo sapiens), O43603; GALR2-expressing cells, agonist activation read-out; activation, %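 (tested at 5 µM)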; 140,000 compounds, 0.48% hits; AID 803, 2007;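 active = above mean plus 3 SD of all compounds, about 5% in these data, not always enough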;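 note: 0% = vehicle buffer wells and 100% = reference agonist at full effect; tested in CHO reporter cells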
Target sequence (O43603 whole entry, looked up): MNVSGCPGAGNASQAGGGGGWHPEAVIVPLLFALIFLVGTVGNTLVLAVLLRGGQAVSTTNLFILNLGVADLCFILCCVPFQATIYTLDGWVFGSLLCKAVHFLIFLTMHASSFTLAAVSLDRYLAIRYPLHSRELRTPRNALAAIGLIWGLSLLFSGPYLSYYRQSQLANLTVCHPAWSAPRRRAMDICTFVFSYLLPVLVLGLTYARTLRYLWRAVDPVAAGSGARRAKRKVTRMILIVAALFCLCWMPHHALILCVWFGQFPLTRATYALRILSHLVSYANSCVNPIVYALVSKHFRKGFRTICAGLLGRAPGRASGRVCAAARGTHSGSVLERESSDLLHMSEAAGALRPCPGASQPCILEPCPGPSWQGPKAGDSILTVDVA
HSV augment: enhancers of HSV replication in host cells, fold increase, host cell viability; maximum fold increase; HSV replication augmentation in cells; 220,000 compounds, 0.005% hits;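 active = peak rise of 1.5-fold or more in the series; tested in PC3 cells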;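 note: first round at 10 µM; read as green reporter fluorescence; hits show the peak of a series up to 25 µM; 1 = signal of infected wells without compound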
RGS16-Gao HTS: modulators of RGS16 binding to Galphao, primary screen, biochemical, human proteins, multiplexed bead flow cytometry. bead-based flow cytometry RGS16-Galphao binding, fluorescence; actives lie on both sides. binding response (% of control), % at 10 µM. 220,000 compounds, 0.38% hits. AID 1441, 2008;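 active = below 25% or above 175%, edge rows of some plates excepted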;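 note: Galphao activated by GDP with aluminum fluoride before binding; 100% = wells without compound and 0% = beads without RGS; some results beyond the cut were filed as inactive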
Target sequence (O15492 whole entry, looked up): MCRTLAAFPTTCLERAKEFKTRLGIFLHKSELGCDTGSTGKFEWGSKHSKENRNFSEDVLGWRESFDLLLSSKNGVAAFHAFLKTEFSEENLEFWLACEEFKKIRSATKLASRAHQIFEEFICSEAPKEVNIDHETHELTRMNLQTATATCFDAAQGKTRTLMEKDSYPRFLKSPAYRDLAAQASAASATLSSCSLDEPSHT
Target sequence (P09471 whole entry, looked up): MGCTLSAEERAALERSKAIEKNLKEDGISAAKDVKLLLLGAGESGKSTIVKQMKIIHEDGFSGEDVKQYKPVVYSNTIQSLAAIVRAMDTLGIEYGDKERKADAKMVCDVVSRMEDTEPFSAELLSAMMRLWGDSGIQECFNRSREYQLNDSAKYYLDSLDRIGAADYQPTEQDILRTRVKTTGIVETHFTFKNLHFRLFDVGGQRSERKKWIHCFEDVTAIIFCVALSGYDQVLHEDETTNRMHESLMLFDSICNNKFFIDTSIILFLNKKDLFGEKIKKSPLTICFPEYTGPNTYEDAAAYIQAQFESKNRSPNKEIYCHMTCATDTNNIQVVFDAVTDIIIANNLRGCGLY
Insulin prom inh cell count: recorded beside Insulin prom inh, whose call it bears; normalized cell count, %; measured here: cell count, toxicity; reference of the scale not given here;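 cells exposed to compound for 48 h; stained nuclei by imaging scaled within each plate; lower means fewer cells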
HSV augment primary fold: second read-out of HSV augment, no call of its own (marks repeat the call); fold increase; compound at 10 µM; measured here: primary screen fold increase 10 uM; tested in PC3 cells;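 GFP signal in the first replicate; 1 = infected wells without compound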
Active calls of the source: *; i = inactive; · = not tested or not shown. An unsorted share of the library, and some 1.3% of all compounds hit somewhere here.

canonical_smiles | PKD1 inh | Insulin prom inh | Insulin prom inh cell count | GALR2 agonist | HSV augment | HSV augment primary fold | RGS16-Gao HTS
O=C(Nc1ccc(C2=NCCN2)cc1)c1ccc(C(=O)Nc2ccc(C3=NCCN3)cc2)c([N+](=O)[O-])c1 | · | · | · | · | i | 0.95 | 88.8
Nc1nc(-c2ccccc2)cc(N2CCCCC2)n1 | -7.2 | -93.1 | 9.1 | 3.0 | i | 0.56 | 112.2
Cc1ccc(C(=O)c2cccc(N)c2)cc1C | -6.6 | -18.2 | 109.0 | · | i | 1.01 | 115.2
Cc1ccc(-n2c3c(cc(C(=O)O)c2=O)C(=O)CC(C)(C)C3)cc1 | 2.1 | 8.3 | 76.8 | 1.7 | i | 0.92 | 101.9
O=C(CNC(=S)NC(=O)c1cccc([N+](=O)[O-])c1)c1ccccc1 | 3.7 | 6.5 | 118.3 | -0.9 | i | 1.06 | 66.2
CC(C)(C)c1ccc(C(=O)N2CCC(C(=O)NCC3CCCO3)CC2)cc1 (centres undefined) | -2.2 | -18.2 | 100.9 | -2.9 | i | 0.83 | 81.4
CCSc1nc(O)c(C2OC(=O)c3c2ccc(OC)c3OC)c(=O)n1-c1ccccc1 (centres undefined) | 11.9 | 14.3 | 135.5 | -0.6 | i | 1.1 | 101.7
O=C(CSc1ccc(-c2ccncc2)nn1)N1CCCCC1 | -1.3 | -8.3 | 169.2 | · | i | 0.94 | 101.3
Cn1c(=O)c(C(=O)CCl)c(N)n(CC2CC2)c1=O | 2.6 | 42.9 | 117.2 | -1.9 | i | 0.89 | 103.5
CC1=NN(C(N)=S)C(=O)C1N=Nc1cccc(C)c1 (centres undefined) | · | · | · | · | i | 1.11 | 100.8
O=C(COC(=O)c1n[nH]c(=O)c2ccccc12)c1ccc(Cl)cc1 | -2.8 | · | · | -2.1 | · | · | 99.1
Cn1nnnc1SCC(=O)N(C1CCCCC1)C1CCCCC1 | 13.7 | 14.3 | 100.8 | -2.4 | · | · | 94.8
Cc1ccc(NC(=S)N(CCCN2CCC(C)CC2)Cc2ccco2)cc1C | -6.3 | · | · | · | i | 0.97 | 102.6
O=C(COC(=O)c1ccc2c(c1)OCO2)Nc1ccccc1 | 4.4 | · | · | · | i | 0.77 | 106.0
O=C(COC(=O)c1cn(-c2ccccc2)nc1-c1ccccc1)c1cccc([N+](=O)[O-])c1 | -2.7 | · | · | -2.1 | i | 0.87 | 103.8
CC1(C)CC(=O)C(N=Nc2ccc(S(=O)(=O)N3CCOCC3)cc2)=C(O)C1 | · | · | · | · | i | 1.06 | 95.8
O=C1c2ccccc2C(=O)N1Cc1nc2ccccc2o1 | -6.5 | 42.9 | 100.6 | -0.7 | i | 1 | 103.5
CCn1c2ccccc2c2cc(NC(=O)c3cccc(OC)c3OC)ccc21 | -7.2 | · | · | -1.2 | i | 0.86 | 109.0
CS(=O)(=O)c1ccc2nc(N)sc2c1 | -0.9 | · | · | -1.3 | i | 0.98 | 100.0
COc1cccc(NC(=O)Cc2ccc(C)cc2)c1 | 0.0 | -3.6 | 70.1 | -2.0 | i | 1.02 | 99.0

(cont.)
canonical_smiles | PKD1 inh | Insulin prom inh | Insulin prom inh cell count | GALR2 agonist | HSV augment | HSV augment primary fold | RGS16-Gao HTS
CC1=C(C#N)C(/C=N/OCc2ccc(F)cc2Cl)CC(=O)N1 (centres undefined) | 4.0 | · | · | · | i | 0.91 | 102.1
COCn1ccnc1C(O)(c1ccc(OC)cc1)c1ccc(OC)cc1 | -2.0 | -19.4 | 98.7 | -0.9 | i | 1.06 | 105.5
CC1(C)Cc2nc3nc(SCC(=O)Nc4ccccc4)nc(N)c3cc2CO1 | -3.6 | · | · | · | i | 0.91 | 106.2
COc1ccc(N2CCN(C(=S)Nc3cccc(C)c3C)CC2)cc1 | -0.1 | 20.0 | 100.0 | -2.6 | i | 0.92 | 104.9
Cc1ccc(NC(=S)N(Cc2cccs2)Cc2cc3cc(C)cc(C)c3[nH]c2=O)cc1 | -5.9 | 56.8 | 93.7 | -1.2 | i | 0.79 | 102.3
CC(C)NC(=S)Nc1c(N)[nH]c(=O)[nH]c1=O | · | · | · | · | i | 0.89 | 102.8
CCOCCCNC(=O)c1cc(Sc2nnc(C)s2)nc2ccccc12 | · | · | · | · | i | 0.97 | 115.2
COc1ccccc1-n1c(SCC(=O)Nc2ccccc2C)nc(O)cc1=O | -9.1 | · | · | -0.4 | i | 0.97 | 100.1
COc1cccc(-n2nc(C(=O)N3CCN(Cc4ccccc4)CC3)c3ccccc3c2=O)c1 | -0.5 | -66.7 | 71.4 | · | i | 1 | 35.0
COc1ccc(N2CCN(c3oc(Cc4cccc5ccccc45)nc3C#N)CC2)cc1 | -4.0 | 35.9 | 103.8 | -1.3 | i | 0.97 | 104.1
CCOc1ccc(Nc2nc(Cc3nnc(SCC(=O)O)o3)cs2)cc1 | -1.2 | · | · | -1.9 | i | 0.76 | 106.2
Cc1cc(C)nc(Sc2ccc([N+](=O)[O-])cc2[N+](=O)[O-])n1 | 6.4 | 59.3 | 99.2 | -1.5 | i | 0.81 | 101.7
CNC(=O)Oc1ccc2c(c1)[C@]1(C)CCN(C)[C@@H]1N2C | 2.5 | 4.5 | 133.9 | -1.2 | i | 0.9 | 95.4
CC1=C(C(=O)Nc2ccc(Cl)cc2)C(c2ccco2)NC(=O)N1 (centres undefined) | 12.3 | -31.2 | 85.2 | 0.2 | i | 0.81 | 101.2
Cc1cccc(-c2nc(CN3CCCC(C(=O)NC4CCC(C)CC4)C3)c(C)o2)c1 (centres undefined) | -6.0 | -135.7 | 202.5 | -0.2 | i | 0.98 | 152.3
O=C(Cn1c(CN2CCCCC2)nc2ccccc2c1=O)Nc1ccccc1 | 10.7 | · | · | -0.5 | i | 0.84 | 96.1
COc1ccc(-c2noc(CSc3nnc(-c4ccccc4)n3C)n2)cc1 | -4.6 | -23.3 | 86.7 | -2.8 | i | 0.91 | 99.8
Cn1nnnc1SCC(=O)Nc1cc(C(=O)O)cc(C(=O)O)c1 | -2.5 | -23.6 | 107.0 | -1.8 | i | 1.02 | 107.8
CCOc1ccc2[nH]cc(C(=O)N3CCN(CC)CC3)c(=O)c2c1 | -4.1 | 40.5 | 88.5 | -1.5 | i | 1.05 | 100.4
COc1ccccc1NC(=O)c1ccc(NS(C)(=O)=O)cc1 | -5.7 | -50.0 | 158.6 | -1.0 | i | 0.66 | 100.7

Next entries follow:
canonical_smiles | PKD1 inh | Insulin prom inh | Insulin prom inh cell count | GALR2 agonist | HSV augment | HSV augment primary fold | RGS16-Gao HTS
COc1ccc(Cl)cc1Nc1ncnc2sc(C)c(S(=O)(=O)N3CCC(C)CC3)c12 | -4.9 | -14.8 | 102.3 | -1.5 | i | 0.98 | 105.3
Cc1ccccc1NC(=O)Cn1c(C)nc2ccc(N)cc2c1=O | -9.9 | -12.7 | 104.3 | -1.2 | i | 1.02 | 98.5
CC(=O)N1CCN(C(=O)CSc2nc3c(cnn3-c3ccccc3)c(=O)[nH]2)CC1 | -4.1 | 5.7 | 90.4 | -1.6 | i | 1.02 | 82.4
Cc1cc(C)c(C#N)c(Nc2ccccc2)n1 | 3.3 | -33.3 | 144.3 | -0.8 | i | 0.9 | 97.4
O=C(NC1(C(F)(F)F)NC(=O)N(Cc2cccnc2)C1=O)c1ccncc1 (centres undefined) | -2.9 | -41.4 | 84.0 | -1.4 | i | 0.89 | 103.1
CCC(C)N1C(=O)S/C(=C/c2ccc(N3CCOCC3)cc2C)C1=O (centres undefined) | -6.6 | 33.3 | 154.0 | -0.6 | i | 1.04 | 105.9
CN(C)C(CNc1ncnc2sc3c(c12)CCCC3)c1ccco1 (centres undefined) | -1.1 | · | · | · | i | 1.12 | 99.6
CCNC(=O)C1CC(=O)N(c2ccc(OCC)cc2)C1 (centres undefined) | 1.1 | 50.9 | 71.6 | -1.3 | i | 0.983 | 101.0
CCCN(CC1CC1)C(=O)COC(=O)c1[nH]c(C)c(C(=O)OCC)c1C | -4.4 | -6.2 | 130.5 | -5.4 | i | 0.96 | 104.5
Cn1cc(Br)c(C(=O)N2CCN(c3cccc(Cl)c3)CC2)n1 | -8.4 | 41.9 | 121.6 | -2.4 | i | 0.87 | 39.8
COc1ccc(Cl)cc1NC(=O)C1CCCO1 (centres undefined) | -4.0 | · | · | 0.1 | i | 1.03 | 114.0
Nc1[nH]c(N=NC(=O)c2ccc(Cl)cc2)c2ccccc12 | -4.6 | · | · | -1.0 | i | 1.07 | 97.3
C/C(=N\Nc1ccc(C(=O)O)cc1)c1ccc2c(c1)Nc1ccccc1S2 | · | · | · | · | i | 1.07 | 104.0
CCS(=O)(=O)c1nc2ccccc2n1CC(=O)N1CCOCC1 | -2.2 | 34.2 | 94.7 | 0.8 | i | 0.84 | 96.6
COC(=O)c1cc(=O)n(CCc2ccccc2F)c(=Nc2ccc(F)c(Cl)c2)s1 | -2.3 | · | · | -1.0 | i | 0.51 | 100.8
Cc1ccc(-c2cccc(C(=O)NCc3ccccc3)n2)c2ccccc12 | 8.6 | 47.6 | 116.5 | -0.2 | i | 1.42 | 172.4
COc1ccc(N2CCN(CCCNS(=O)(=O)c3c(C)noc3/C=C/N(C)C)CC2)cc1 | 11.7 | · | · | -3.4 | i | 0.96 | 100.8
CSc1nsc(SCc2ccc(Cl)cc2)n1 | -6.1 | -13.9 | 164.1 | -2.1 | i | 0.65 | 95.0
O=C(CSc1nc(-c2ccco2)cc(C(F)(F)F)n1)Nc1ccc(C(=O)N2CCOCC2)cc1 | -6.5 | -31.0 | 82.8 | 0.2 | i | 1.02 | 104.2
O=C(CCC(=O)c1ccc(Cl)cc1)OCC(=O)c1ccccc1 | -4.4 | -61.3 | 101.8 | -2.0 | i | 0.84 | 102.3

Other records
canonical_smiles | PKD1 inh | Insulin prom inh | Insulin prom inh cell count | GALR2 agonist | HSV augment | HSV augment primary fold | RGS16-Gao HTS
CC(=O)c1cc(NC(=O)c2ccccc2)c(=O)oc1C | 0.4 | · | · | · | i | 0.83 | 102.6
COc1cccc(CN2C(=O)Nc3ccccc3C(=O)N2C(C)(C)C)c1 | 2.5 | -5.6 | 146.9 | 0.0 | i | 1.04 | -56.3
Cc1cc(OCc2ccc(C(=O)n3cccn3)o2)ccc1Cl | 5.3 | 21.1 | 123.4 | 0.0 | i | 1 | 115.7
N#Cc1ccc(OCC(=O)n2cc(C(=O)c3cc(Cl)cc(Cl)c3O)cn2)cc1 | · | · | · | · | i | 0.97 | 97.7
CC(C)(CO)NC(=O)Nc1ccc(Cl)c(Cl)c1 | -5.3 | · | · | · | i | 0.96 | 110.5
O=C(COC(=O)c1ccccc1SCC(=O)NC1CCS(=O)(=O)C1)NC1CCS(=O)(=O)C1 (centres undefined) | -7.0 | -14.3 | 95.2 | · | i | 1.06 | 103.7
O=Cc1cn(-c2ccccc2)nc1-c1cc2c(ccc3ccccc32)oc1=O | -0.8 | 17.4 | 98.4 | -1.0 | · | · | 99.6
COc1ccc(CCNC(=O)CSc2nnc3ccc(-c4ccncc4)nn23)cc1 | -6.0 | · | · | · | i | 0.86 | 95.7
O=C(Cc1ccc(F)cc1)N(c1ccccc1)C1C=CS(=O)(=O)C1 (centres undefined) | -9.1 | -37.5 | 70.8 | -0.8 | i | 1.08 | 97.9
COc1cc(C(=O)NCCc2ccc3c(c2)OCCO3)ccc1OCC(=O)N1CCOCC1 | -2.9 | -42.9 | 55.8 | -2.5 | i | 0.95 | 115.3

Screening data deposited in PubChem by several laboratories.
